Assay outcomes deposited in PubChem BioAssay by several laboratories.
RecA intein inh = blocks M. tuberculosis RecA intein splicing; P9WHJ3; cell-free RecA intein splicing, fluorescence; inhibition, %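 (about 9 µM by stock and volumes)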; actives 0.75% (n = 290,000); AID 2221; in the data active = inhibition above about 30%; inconclusive = no clear call, values can overlap the other calls;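 also: 0% = vehicle wells and 100% = reference inhibitor control wells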
Target sequence (P9WHJ3 whole entry, looked up): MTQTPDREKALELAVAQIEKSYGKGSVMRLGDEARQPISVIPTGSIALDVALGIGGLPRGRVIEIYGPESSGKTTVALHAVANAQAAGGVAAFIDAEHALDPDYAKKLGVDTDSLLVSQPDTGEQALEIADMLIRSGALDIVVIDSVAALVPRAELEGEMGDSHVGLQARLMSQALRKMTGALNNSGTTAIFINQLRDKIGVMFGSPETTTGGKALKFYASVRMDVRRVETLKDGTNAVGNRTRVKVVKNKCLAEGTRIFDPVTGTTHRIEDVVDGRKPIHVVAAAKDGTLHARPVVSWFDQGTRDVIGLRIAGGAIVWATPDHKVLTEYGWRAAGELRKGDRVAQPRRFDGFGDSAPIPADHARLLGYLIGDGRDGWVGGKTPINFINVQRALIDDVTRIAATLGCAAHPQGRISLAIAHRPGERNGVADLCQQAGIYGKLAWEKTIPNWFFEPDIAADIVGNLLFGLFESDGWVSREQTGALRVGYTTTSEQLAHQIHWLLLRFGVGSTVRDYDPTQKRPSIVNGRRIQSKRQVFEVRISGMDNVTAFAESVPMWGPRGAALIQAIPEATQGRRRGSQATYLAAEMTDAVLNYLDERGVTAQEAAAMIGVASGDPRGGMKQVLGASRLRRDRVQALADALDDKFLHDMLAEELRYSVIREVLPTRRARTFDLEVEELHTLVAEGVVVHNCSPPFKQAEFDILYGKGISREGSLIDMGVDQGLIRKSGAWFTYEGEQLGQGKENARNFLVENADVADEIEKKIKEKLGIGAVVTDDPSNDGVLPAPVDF
YopH inh = inhibitors of Yersinia enterocolitica YopH tyrosine phosphatase | fluorescence Ex485/Em525 | inhibition, %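 (about 10 µM by stock and volumes)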 | actives 0.16% (n = 140,000);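 active = inhibition of 50% or more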;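 also: controls were vehicle for no effect and minimum signal wells for full effect; inactives centre near -20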
Mtb betalactam = beta-lactam sensitization of Mtb H37Rv; inhibition, % at 25 µM; actives 0.27% (n = 330,000); M. tuberculosis H37Rv growth with meropenem, percent inhibition; hits of this screen are not shown here;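 active = about 74% or more and at least 40 points above the plate without the antibiotic, then above 30% in a dose series; inconclusive = first-round hits that could not be retested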;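 also: growth measured after seven days incubation then overnight dye step; 0% = bacteria only wells and 100% = bacteria with antibiotic; twin plates without the antibiotic show which effects depend on it; some results filed as inactive read as strong as hits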
Arbovirus inh = blocks arbovirus infection; arbovirus infection cell-based antiviral screen; inhibition, % at 10 µM; actives 0.37% (n = 200,000); AID 1251;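 active = inhibition from about 30%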;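 also: bluetongue infection of BSR cells; cell survival read as ATP light after 72 h; 0% = infected wells without compound and 100% = uninfected wells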
Mtb growth = M. tuberculosis H37Rv growth inhibitors, H37Rv strain (AID 1626); inhibition, % at 10 µM; hits with a dose series show IC50 in µM; M. tuberculosis H37Rv growth inhibition; higher % means a stronger effect; actives 0.95% (n = 220,000);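 active = confirmed in a dose series; inconclusive = inhibition above 80% but not taken into the dose series; inactive = below 80% or under 30% at every dose of the series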;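 also: bacteria incubated seven days before Alamar blue readout; 0% = bacteria only wells and 100% = bacteria with antibiotic wells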
Arbovirus inh repeat = recorded beside Arbovirus inh, whose call it bears; inhibition, %; measured here: 10K subset replicate screen; many hits read low in the repeat;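 first of two repeat runs on a subset; 0% = infected and 100% = uninfected wells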
An asterisk follows results filed as active; ? = inconclusive; · = no result given. Not all compounds are listed (hit frequency here may not be typical).

SMILES	RecA intein inh	YopH inh	Mtb betalactam	Arbovirus inh	Mtb growth	others
CCOC(=O)CSc1nc(C(C)C)nc2sc(C)c(C)c12	8.6	·	59.8	0.5	0.9%
CC(C)c1ccc(NC(=O)CSc2nc(-c3ccccc3F)nc3nc[nH]c23)cc1	-3.4	-17.2	-2.5	10.2	·
CC(=O)c1cccc(NC(=O)CCN2C(=O)C3C4CCC(C4)C3C2=O)c1 (centres undefined)	-1.6	·	1.4	·	·
Cn1c(SCc2cccc(Br)c2)nc2ccccc2c1=O	-0.1	·	4.0	·	·
COc1ccccc1Nc1nc(-c2sc(NC(=O)c3ccccc3)nc2C)cs1	1.2	-17.9	-3.4	-11.2	2.4%
COc1cc(OC)c(OC)cc1CNC(=O)CCN1C(=O)c2cccc([N+](=O)[O-])c2C1=O	-0.6	·	1.3	·	·
S=C(NCCCc1ccccc1)NC1CCCCC1	6.7	·	-2.8	·	·
Clc1ccccc1Cn1nnc2c(NCC3CC3)ncnc21	·	-37.4	-6.1	-1.4	-2.0%
Fc1cc(Br)ccc1Nc1nc2ccccc2n2nnnc12	0.3	-25.2	-1.0	-8.6	8.4%	Arbovirus inh repeat=-4.9
CCOC(=O)n1c(SCC(=O)N(CC)CC)nc2ccccc21	0.6	-12.2	-10.6	-2.9	-15.2%
Cc1ccc(-c2nn(-c3ccccc3)cc2C(=O)NCCCN2CCOCC2)cc1	0.7	·	4.5	·	·
C/C(=N/NC(=O)c1ccc2c(c1)OCO2)c1cccc(NC(=O)C(C)(C)C)c1	0.2	-15.4	11.7	-0.7	4.5%
COc1cc(NC(=O)NCC2CCN(Cc3ccc(C)cc3)CC2)cc(OC)c1OC	0.5	·	-6.3	·	·
Nc1ccccc1SC1CC(=O)N(Cc2ccccc2)C1=O (centres undefined)	1.5	·	0.7	0.1	5.7%
CCC(=O)N1c2ccc(S(=O)(=O)N3CCOCC3)cc2CC1C (centres undefined)	-0.1	·	-5.0	·	·
O=C(CNC(=S)N(Cc1ccccc1)Cc1ccccc1F)NCCc1ccc(Cl)cc1	14.2	·	4.2	-36.1	19.6%
COc1ccc(C(CNC(=O)c2cccc(NS(=O)(=O)c3ccc(C)c(F)c3)c2)N(C)C)cc1 (centres undefined)	2.6	·	-9.9	·	·
CCOC(=O)C1(c2ccccc2)CCN(CC(=O)Nc2cccc3ccccc23)CC1	11.5	-16.6	?	-25.8	9.0%
CCC(CO)NC(=O)c1cccc(S(=O)(=O)N2c3ccccc3CC2C)c1 (centres undefined)	-4.9	2.8	51.6	3.0	3.3%
Cc1cc(S(=O)(=O)N2CCCC2)ccc1OCC(=O)N1CCCCC1	2.5	·	-7.7	·	·
COc1cccc(CC(=O)N2CCN(Cc3cccc(Cl)c3)CC2)c1	-2.3	·	-3.5	·	·
Cc1cccc(OCC(=O)NCC(=O)N/N=C/c2ccccc2)c1	-0.5	·	0.7	·	·
NC(=S)N/N=C/c1ccc(-c2ccccc2)o1	-0.9	·	97.2	-5.6	?
O=c1ncn(-c2cccc(Cl)c2)c2ccccc12	-0.2	·	7.4	·	·
COc1cccc(CNC(=O)CCNS(=O)(=O)c2cccc3nonc23)c1	1.2	·	-2.2	·	·
Cc1ccc2nc(SC(C)C(=O)N3CC(C)OC(C)C3)[nH]c2c1 (centres undefined)	2.5	·	-4.0	7.8	5.2%
CCc1ccc(S(=O)(=O)NCCc2cn3cccc(C)c3n2)s1	-2.7	·	7.8	-2.0	9.4%
Cc1ccc(O)c(CNc2cccc3cccnc23)c1	0.7	·	33.5	3.5	-19.5%
C/C(=N/OC(=O)c1ccccc1)c1oc(C)nc1C	-0.9	·	-1.5	·	-4.1%
COC(=O)NNC(=O)c1ccccc1C	0.5	0.0	7.5	-5.9	-7.3%
Cc1ccc(CNC(=O)c2cc(C)nn2-c2ccccc2)cc1	-0.6	·	51.0	·	9.6%
Cc1ccc(NC2=NCCCS2)cc1Cl	0.0	·	5.2	·	·
Cc1cc(C)nc(NC(=O)c2ccc([N+](=O)[O-])c(C)c2)n1	-1.7	·	-3.5	·	·
COc1ccc(-c2csc(Nc3ccc(S(N)(=O)=O)cc3)n2)cc1	8.7	-22.5	13.0	12.3	26.4%
Fc1ccccc1CCNc1nnnn1-c1ccccc1	-1.9	-3.4	-6.5	3.0	3.2%
CCn1nnnc1-c1ccc(OC)c(S(=O)(=O)NCc2ccccc2)c1	1.1	-26.6	-1.6	5.9	3.0%
Cc1nc2cc(C(F)(F)F)ccc2n1CCNc1nc(-c2ccc([N+](=O)[O-])c(Cl)c2)cs1	-5.4	·	11.9	·	·
Cc1ccc(CNC(=O)C2(C)Oc3ccccc3NC2=O)cc1 (centres undefined)	-0.2	-24.5	18.9	1.8	25.6%
COc1ccc(NC(=S)NCC(c2ccco2)N2CCCC2)cc1 (centres undefined)	1.5	·	-5.3	15.8	7.6%
O=C(Nc1ccccc1F)c1ccccc1-c1ccc(C(F)(F)F)cc1	0.9	-28.7	-0.4	-1.8	1.7%
COc1cccc(NC(C(=O)Nc2cccc(C(C)=O)c2)c2ccccc2)c1 (centres undefined)	3.3	-8.0	9.1	7.1	6.2%
O=C(/C=C/c1cccnc1)c1ccccc1O	-3.9	·	19.4	·	-1.4%
N/C(=N\OC(=O)c1ccc(F)cc1)c1ccccc1	2.2	-45.0	-5.1	-4.6	·
Cc1cc(=O)n2c(n1)SCOC2	0.6	·	1.2	·	-1.5%
CCc1ccc(NC(=O)CN2C(=O)COc3ccc(S(=O)(=O)N4CCCC4)cc32)cc1	-1.8	·	-2.0	·	·
CCc1ccc2c(COC(=O)c3n[nH]c4ccccc34)cc(=O)oc2c1	-5.5	-13.0	7.3	6.0	-6.9%
O=C(O)CCN1C(=O)/C(=C\c2cccc(OCc3ccccc3)c2)SC1=S	11.9	·	-0.5	·	·
CCc1ccccc1NC(=S)NN	-3.6	·	99.4	-4.3	4.9%
O=C(c1cc(-c2ccc(Cl)c(Cl)c2)on1)N1CCN(c2ccccc2)CC1	-6.5	-36.1	-2.1	-31.2	-2.8%
O=S(=O)(Cc1ccccc1Cl)NCc1ccccc1	-1.0	·	0.7	-3.1	5.8%

The list continues:
SMILES	RecA intein inh	YopH inh	Mtb betalactam	Arbovirus inh	Mtb growth	others
Cc1nc(SCC(=O)Nc2ccnc3ccccc23)n[nH]1	-0.5	-13.6	13.1	7.4	-7.5%
Clc1ccc(C2=Nn3c(nnc3-c3cccnc3)SC2)s1	1.6	-28.7	40.6	2.9	0.1%
COc1cc(C2N(c3cc(C)on3)C(=O)C3CCCN32)cc(OC)c1OC (centres undefined)	-0.3	-19.8	-8.3	6.0	0.1%
COc1ccc(N2C(=O)CC(N3CCC(O)(c4ccc(Br)cc4)CC3)C2=O)cc1 (centres undefined)	2.1	-22.4	2.0	2.6	-8.3%
CC(=O)N1CCN(C(=O)c2cc(-c3ccc(Cl)s3)nc3ccccc23)CC1	-3.3	·	0.4	·	·
O=C1C(=O)N(C2CCCC2)C(=O)N1Cc1c(F)cccc1Cl	6.3	·	0.6	-1.6	0.2%
CCOc1ccccc1NC(=O)CCn1nc(C)c(S(=O)(=O)N2CCCCC2)c1C	-1.2	·	-1.0	·	·
NC(=O)Cn1c(=O)n(Cc2ccco2)c(=O)c2c3c(sc21)CCCCC3	2.4	-0.9	2.6	16.5	-17.1%
Cc1ccccc1OCc1nnc(SCC(=O)Nc2ccc3c(c2)OCO3)n1C	-5.0	-44.4	-7.7	-25.4	1.2%
COC(=O)C1=C(N)c2c(F)cccc2C1(C#N)c1ccc(F)cc1 (centres undefined)	1.8	-16.6	-5.7	-6.2	-2.1%
Cc1ccc(C(=O)NC(=S)NNC(=O)COc2ccccc2C)cc1	0.3	·	88.0	-17.0	?
CCCN(CCC)S(=O)(=O)c1ccc(C(=O)O)cc1	1.2	-51.8	-7.6	-2.1	-15.2%
Cc1cc(NS(=O)(=O)c2ccc(NC(=O)CSc3nc4ncc(Cl)cc4[nH]3)cc2)nc(C)n1	-0.1	·	10.1	·	2.8%
O=C1C=Cc2ccccc2C1=O	38.9*	62.5*	6.5	-5.3	-3.0%
Cc1cc(C(=O)Nc2cccc(C)c2C)n(-c2ccccc2)n1	1.2	·	7.2	·	·
COc1ccc(N2C(=O)CC(NCc3cccc(F)c3)C2=O)cc1 (centres undefined)	-1.3	·	-10.7	2.1	-11.4%	Arbovirus inh repeat=-3.5
O=C(CN1C(=O)C2CC=CCC2C1=O)Nc1nc2ccccc2[nH]1 (centres undefined)	-2.6	-39.6	-2.6	3.9	-1.9%
CCCn1nnnc1NCc1ccccc1OCC	1.6	·	0.9	·	·
CCOC(Cn1c(SCC(=O)Nc2cc(C)on2)nc2ccccc2c1=O)OCC	1.6	·	3.2	·	·
O=C(CO/N=C1\CCCc2nonc21)Nc1ccccc1Cl	1.8	-15.2	-1.5	-8.2	4.8%
O=S(=O)(NCc1ccccc1)c1ccc(S(=O)(=O)N(Cc2ccccn2)Cc2ccco2)cc1	-0.3	-12.1	4.3	-4.5	-0.6%
CCn1c(-c2csc3c2CCCC3)n[nH]c1=S	-0.3	-10.7	-1.1	10.8	2.9%
Cc1nc2ccc(NC(=O)c3sccc3C)cc2s1	-2.3	-28.6	25.0	-2.7	-11.2%
O=C(O)c1cncc(C#CCC2CCCCC2)c1	1.2	·	1.1	·	-7.4%
Cc1ccc(Nc2nc(Cl)c(C=O)s2)cc1Cl	20.3	·	15.1	15.9	15.7%
Cc1cc(C(=O)O)ccc1-c1ccc(CO)o1	-0.3	·	-2.4	3.9	0.5%
Cc1cccc(C)c1OCc1cc(C(=O)N2CCN3CCCC3C2)no1 (centres undefined)	-0.7	·	-1.0	·	·
Cc1c(NC2=CC(=O)CC(C)(C)C2)ccc([N+](=O)[O-])c1C	-3.4	-27.8	-2.3	2.4	-1.6%
CCS(=O)(=O)N1CCCC(C(=O)NC2CCCCC2)C1 (centres undefined)	1.0	-54.1	-2.2	4.3	3.7%

Structures above containing four or more nitrogen atoms, in the order listed:
SMILES	RecA intein inh	YopH inh	Mtb betalactam	Arbovirus inh	Mtb growth	others
CC(C)c1ccc(NC(=O)CSc2nc(-c3ccccc3F)nc3nc[nH]c23)cc1	-3.4	-17.2	-2.5	10.2	·
COc1ccccc1Nc1nc(-c2sc(NC(=O)c3ccccc3)nc2C)cs1	1.2	-17.9	-3.4	-11.2	2.4%
Clc1ccccc1Cn1nnc2c(NCC3CC3)ncnc21	·	-37.4	-6.1	-1.4	-2.0%
Fc1cc(Br)ccc1Nc1nc2ccccc2n2nnnc12	0.3	-25.2	-1.0	-8.6	8.4%	Arbovirus inh repeat=-4.9
Cc1ccc(-c2nn(-c3ccccc3)cc2C(=O)NCCCN2CCOCC2)cc1	0.7	·	4.5	·	·
COc1cccc(CNC(=O)CCNS(=O)(=O)c2cccc3nonc23)c1	1.2	·	-2.2	·	·
Cc1cc(C)nc(NC(=O)c2ccc([N+](=O)[O-])c(C)c2)n1	-1.7	·	-3.5	·	·
Fc1ccccc1CCNc1nnnn1-c1ccccc1	-1.9	-3.4	-6.5	3.0	3.2%
CCn1nnnc1-c1ccc(OC)c(S(=O)(=O)NCc2ccccc2)c1	1.1	-26.6	-1.6	5.9	3.0%
Cc1nc2cc(C(F)(F)F)ccc2n1CCNc1nc(-c2ccc([N+](=O)[O-])c(Cl)c2)cs1	-5.4	·	11.9	·	·
Cc1nc(SCC(=O)Nc2ccnc3ccccc23)n[nH]1	-0.5	-13.6	13.1	7.4	-7.5%
Clc1ccc(C2=Nn3c(nnc3-c3cccnc3)SC2)s1	1.6	-28.7	40.6	2.9	0.1%
CCOc1ccccc1NC(=O)CCn1nc(C)c(S(=O)(=O)N2CCCCC2)c1C	-1.2	·	-1.0	·	·
Cc1ccccc1OCc1nnc(SCC(=O)Nc2ccc3c(c2)OCO3)n1C	-5.0	-44.4	-7.7	-25.4	1.2%
Cc1cc(NS(=O)(=O)c2ccc(NC(=O)CSc3nc4ncc(Cl)cc4[nH]3)cc2)nc(C)n1	-0.1	·	10.1	·	2.8%
O=C(CN1C(=O)C2CC=CCC2C1=O)Nc1nc2ccccc2[nH]1 (centres undefined)	-2.6	-39.6	-2.6	3.9	-1.9%
CCCn1nnnc1NCc1ccccc1OCC	1.6	·	0.9	·	·
CCOC(Cn1c(SCC(=O)Nc2cc(C)on2)nc2ccccc2c1=O)OCC	1.6	·	3.2	·	·
O=C(CO/N=C1\CCCc2nonc21)Nc1ccccc1Cl	1.8	-15.2	-1.5	-8.2	4.8%

Compounds shown so far that have a CF3 group (two):
SMILES	RecA intein inh	YopH inh	Mtb betalactam	Arbovirus inh	Mtb growth	others
Cc1nc2cc(C(F)(F)F)ccc2n1CCNc1nc(-c2ccc([N+](=O)[O-])c(Cl)c2)cs1	-5.4	·	11.9	·	·
O=C(Nc1ccccc1F)c1ccccc1-c1ccc(C(F)(F)F)cc1	0.9	-28.7	-0.4	-1.8	1.7%
